PINK1 modulator = A Quantitative High throughput Screen to Identify Chemical Modulators of PINK1 Expression; PINK1 immunofluorescence, high-content cytometry, 24 h; Potency, µM (top dose mostly 76.6 µM), for inactives: top-dose activation (PINK1 increase), hits mostly activators; actives 0.2% (n = 410,000); AID 624263, 2012; active = well fitted activation curve with a large enough effect; inconclusive = small, poorly fitted or top-dose-only effect; inactive = flat fitted curve, though single readings scatter; cell line not stated here;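 note: potency is the fitted concentration of half-maximal effect; % of control where 0% means no effect; nearly all actives have a fitted effect of over 65% in size; a mitochondrial uncoupler was the plate control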
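PINK1 protein, normally rapidly degraded, was detected by immunofluorescence after 24 hour compound treatment of a stable cell line. Titration data (5 concentrations) came from laser-scanning cytometry, with CCCP-treated wells as controls.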
TRPV1 PAM = HTS Assay for Compounds that Act as Potentiators of the Vanilloid Receptor 1. TRPV1-expressing cells, Fluo-8 calcium influx, capsaicin EC20 potentiation; host cell line not named in the record; control for the full effect not named in the record. potentiation, % at 8.33 µM. Transient receptor potential cation channel subfamily V member 1 (Homo sapiens), Q8NER1. actives 0.02% (n = 320,000); active means potentiation above 80%; inconclusive means 30% to 80%; inactive means below 30%; note: 0% is about no effect
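Fluo-8 calcium influx in TRPV1-expressing cells, kinetic read (ex 480/em 520 nm). Compound added and read 3 min for agonist activity, followed by capsaicin at EC20 final and 2 min further read for enhancement.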
D2 PAM = Beta-Arrestin HTS for Positive Allosteric Modulators of the Human D2 Dopamine Receptor: Potentiators | DiscoveRx D2 beta-arrestin cells, luminescence, 90 min; 100% = 57 uM dopamine signal | potentiation, % (concentration not given with the values) | actives 0.23% (n = 360,000); active = potentiation of 50% or more; inconclusive = 30% to 50%; inactive = 30% or less;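 note: compound concentration not given in the record; tested on top of an EC20 dose of dopamine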
Target sequence (P14416 whole entry, looked up): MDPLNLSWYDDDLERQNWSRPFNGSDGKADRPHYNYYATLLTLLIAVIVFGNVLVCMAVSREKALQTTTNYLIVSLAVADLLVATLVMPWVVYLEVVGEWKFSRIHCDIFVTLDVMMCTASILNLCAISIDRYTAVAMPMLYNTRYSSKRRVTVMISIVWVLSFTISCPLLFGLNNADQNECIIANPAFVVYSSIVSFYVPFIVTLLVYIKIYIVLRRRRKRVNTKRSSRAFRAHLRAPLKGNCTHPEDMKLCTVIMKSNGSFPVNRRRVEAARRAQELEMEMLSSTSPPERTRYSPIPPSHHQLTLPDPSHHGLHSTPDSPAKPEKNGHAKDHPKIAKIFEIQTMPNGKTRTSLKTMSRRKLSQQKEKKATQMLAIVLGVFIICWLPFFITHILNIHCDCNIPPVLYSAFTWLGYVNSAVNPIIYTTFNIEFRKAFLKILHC
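D2 cells co-treated with compound plus 50 nM dopamine (EC20) for 90 min at 37 deg C to detect potentiation. Beta-arrestin recruitment was read as enzyme-fragment luminescence after 1 h at ambient temperature. Full response was set by 57 uM dopamine.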
D2 ag = Beta-Arrestin HTS for Positive Allosteric Modulators of the Human D2 Dopamine Receptor: Agonists; actives 0.084% (n = 360,000); activation, % (no concentration beside the values); AID 624465, 2012; DiscoveRx PathHunter D2 beta-arrestin, luminescence, 90 min; 100% = 57 uM dopamine signal; D(2) dopamine receptor (Homo sapiens), P14416; in the data active = activation above about 40%; inconclusive = about 15% to 40%; inactive = below about 15%; note: compound concentration not given in the record; the text of the record calls up to 30% inactive
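DiscoveRx PathHunter D2 beta-arrestin cells (2,100/well) attached overnight, then compound-stimulated 90 min at 37 C in HBSS/10 mM HEPES/0.1% Tween-20 buffer; beta-galactosidase complementation read by luminescence after 1 h at ambient temperature. Dopamine 57 uM final (EC100) as control.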
Six1-Eya2 inh = qHTS Assay for Inhibitors of the Six1/Eya2 Interaction. AlphaScreen GST-Six1/His-Eya2 binding, biochemical; stronger effect = lower value; control for the full effect not named in the record. activity change, % (no concentration beside the values). actives 0.56% (n = 360,000). AID 651725, 2012; in the data active = activity change below about -65%; inconclusive = about -30% to -65%; inactive = above about -30%; note: % is set by controls: 0 for no effect and ±100 for the full control effect; compound concentration not given in the record
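GST-Six1 + His-Eya2 (5X stock: 250/500 nM); Tris pH 8.0, 300 mM NaCl, 0.05% BSA, 0.02% Tween 20; GSH donor/Ni acceptor beads; 1 h 37 °C dark; AlphaScreen readout.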
Sfp inh = qHTS Assay for Inhibitors of Bacillus subtilis Sfp phosphopantetheinyl transferase (PPTase) | Potency, µM, for the others: max response, negative = inhibition, most hits filed as inhibitors | Biochemical Sfp PPTase activity, qHTS | 4'-phosphopantetheinyl transferase ffp (Bacillus subtilis), Q9F4F7 | actives 3.5% (n = 310,000); active = well fitted inhibition curve with a large enough effect; inconclusive = small, poorly fitted or top-dose-only effect, or another doubt; inactive = no such curve, though single readings can be large or run the other way;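 note: the enzyme is Sfp with the accession as filed and its product quenches rhodamine fluorescence; potency is the fitted concentration of half-maximal effect; 0% = enzyme reaction without inhibitor and -100% = no enzyme wells; top concentration of the series not given in the record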
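Fluorescence-quenching assay: 15 nM Sfp-PPTase preincubated 15 min at room temperature with compound, then 5 uM rhodamine-CoA and 12.5 uM BHQ-2-labelled YbbR peptide added. Fluorescence (ex 525/em 598 nm) read at start and after 30 min; difference gives rate.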
CtBP-E1A inh = qHTS Assay for Inhibitors of the CtBP/E1A Interaction | actives 0.49% (n = 340,000) | CtBP / adenovirus E1A interaction (AlphaScreen) | activity change, % (no concentration beside the values) | AID 651724, 2012 | AlphaScreen GST-E1A/His-CtBP binding, 1536-well; stronger effect = lower value; control for the full effect not named in the record; in the data active means activity change below about -65%; inconclusive means about -30% to -65%; inactive means above about -30%; note: % is set by controls: 0 for no effect and ±100 for the full control effect; compound concentration not given in the record
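Homogeneous bead-based format: GST-tagged E1A captured on glutathione donor beads, His-tagged CtBP on nickel acceptor beads; compounds precede bead addition by 2 h at 37 °C.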
* hit, by the source's call; ? = inconclusive; nt = no result given; & = joins results of further samples; [ ] = remark or other dose. Not a hit list (roughly 3.7% active in at least one column).

SMILES	PINK1 modulator	TRPV1 PAM	D2 PAM	D2 ag	Six1-Eya2 inh	Sfp inh	CtBP-E1A inh
CCCCN(CCCC)C(=O)c1cc2ccccc2c(=O)o1	1.2%	-17	-10	0.0	3	-3%	13
O=C(CN1C(=O)C2CCCCC2C1=O)Nc1ccccc1C(=O)O (stereo unspecified)	-0.4%	1	-2	-1.2	1	14%	23
CCNC(=S)Nc1ccc(Cl)c(C(F)(F)F)c1	?	-19	3	-2.1	3	13%	12
COc1cc(C(=O)OCCc2cc3ccccc3c(=O)o2)cc(OC)c1OC	8.5%	-1	4	2.0	-5	nt	-5
Cc1ccc(N(CC(=O)NC2CCCCC2)S(=O)(=O)c2cccs2)cc1	7.4%	-10	-4	-3.9	-1	30%[activator]	nt
CCN(CC)S(=O)(=O)c1ccc(C)c(NC(=O)CSc2ncc(C(F)(F)F)cc2Cl)c1	9.2%	1	-13	-6.2	-2	4%	0
Cc1nc(N2CCCCC2C)c2c(C)c(C(=O)Nc3cccc(C(F)(F)F)c3)sc2n1 (stereo unspecified)	8.6%	-11	0	-0.1	17	15%	-5
CCOC(=O)c1nnn(-c2nonc2N)c1CSc1ccccn1	-0.9%	13	-10	-0.8	-1	5%	4
Cn1c(SCC(=O)N2CCCC2)nc2c(c1=O)SCC2	1.4%	nt	-10	0.1	2	nt	3
COCC(C)n1c(SCC(=O)Nc2c(C)n(C)n(-c3ccccc3)c2=O)nc2ccccc2c1=O (stereo unspecified)	-0.4%	nt	-1	-4.5	5	nt	0
CCOc1ccccc1NC(=O)/C=C/c1ccccc1[N+](=O)[O-]	1.5%	6	-35	-0.3	2	-9%	-6
Cc1ccc(S(=O)(=O)NCCC(=O)OCC(=O)Nc2cccc(Cl)c2)cc1	-0.1%	-2	-15	-4.6	-7	nt	8
Brc1ccccc1OCCN1CCOCC1	1.8%	6	-10	3.6	-2	?	4
CCn1c2ccccc2c2cc(CN3CCN(S(C)(=O)=O)CC3)ccc21	0.9%	-1	-18	0.6	-13	-6%	1
Cc1ccc(Cl)cc1NS(=O)(=O)c1ccc2c(c1)NC(=O)C(C)C(=O)N2 (stereo unspecified)	0.1%	-8	1	3.9	18	8%	0
CCOC(=O)Cc1[nH]nc2c1C(c1ccsc1)C(C#N)=C(N)O2 (stereo unspecified)	2.3%	4	-7	-1.8	2	15%	0
COc1ccc(CCNc2nc(-c3ccc(NC(C)=O)cc3)cs2)cc1OC	0.3%	4	-21	1.2	-17	-24%	-13
COc1ccc(C(=O)N/C(=C/c2ccco2)C(=O)N2CCCCCC2)cc1	0.8%	-13	-10	-3.6	-3	89µM*	-2
CCCCn1c(-c2ccco2)nc2oc3ccccc3c(=O)c2c1=O	3.1%	-5	-5	1.9	2	-8%	2
Cc1cccc(NC(=O)COC(=O)CCc2c[nH]c3ccccc23)c1	5.9%	1	-1	0.0	-5	nt	4
CN(C)C(CNC(=O)CCCOc1ccccc1)c1ccco1 (stereo unspecified)	5.6%	-19	-9	-2.0	-3	-6%	6
CC(C)C(NC(=O)Cc1ccccc1[N+](=O)[O-])C(C)C	3.6%	1	15	-1.2	-1	9%	-4
CCOC(=O)N1CCN(C(=S)NC(=O)c2ccc(F)c(F)c2)CC1	7.3%	-3	-8	-1.1	1	3%	-22
CN1CCN(C2CN(CCc3ccccc3)S(=O)(=O)C2)CC1 (stereo unspecified)	0.4%	nt	-9	-3.6	1	nt	1
Cc1c(C)n(C)c2ccc(C(=O)NCCCN3CCOCC3)cc12	-1.1%	-1	-28	-4.4	0	-1%	-1

Next part; the last 3 above are carried over.
SMILES	PINK1 modulator	TRPV1 PAM	D2 PAM	D2 ag	Six1-Eya2 inh	Sfp inh	CtBP-E1A inh
CCOC(=O)N1CCN(C(=S)NC(=O)c2ccc(F)c(F)c2)CC1	7.3%	-3	-8	-1.1	1	3%	-22
CN1CCN(C2CN(CCc3ccccc3)S(=O)(=O)C2)CC1 (stereo unspecified)	0.4%	nt	-9	-3.6	1	nt	1
Cc1c(C)n(C)c2ccc(C(=O)NCCCN3CCOCC3)cc12	-1.1%	-1	-28	-4.4	0	-1%	-1
CN(C)c1cccc(C(=O)OCCCC(=O)c2ccc(F)cc2)c1	-1.1%	-7	-1	3.5	-26	nt	-6
C/C(N)=C(/C#N)C(=O)COC(=O)c1ccccc1Cc1ccccc1	-1.4%	-18	-7	6.8	2	0%	nt
Cc1ccc(S(=O)(=O)N2CCCCC2)cc1NC(=O)CSc1ccc2c(c1)OCCO2	-0.9%	-8	-5	-4.4	-11	-3%	5
O=C(COc1ccc2c(c1)OCO2)Nc1ccccc1F	18%	-18	1	-2.3	-8	10%	5
COc1ccc(S(=O)(=O)N2CCOCC2)cc1NC(=O)C1CCN(S(=O)(=O)c2ccc(Cl)cc2)CC1	14%	nt	1	-0.3	8	nt	-6
CCOc1ccc(Br)cc1CNCc1cccnc1	0.9%	4	-7	-1.0	-5	-4%	-11
CCOc1ccc(NC(=O)NCC2CCN(c3ccc(OC)cc3)C2)cc1 (stereo unspecified)	5.4%[38.3 µM]	3	-9	0.3	-3	-8%	-8
CCOc1ccccc1N1CC(C(=O)NCCOc2ccccc2OC)CC1=O (stereo unspecified)	0.6%	2	1	-0.4	3	16%	-7
Cc1cc(C)cc(N2C(=O)CC(Sc3ncn[nH]3)C2=O)c1 (stereo unspecified)	2.6%	4	-2	3.6	4	35µM*	2
Cc1noc(C)c1COc1cccc(C(=O)N(C)Cc2cccs2)c1	-1.7%	6	-1	-1.6	3	nt	-4
O=C1C(Nc2ccccc2)=C(NS(=O)(=O)c2ccccc2)C(=O)c2ccccc21	2.7%	-2	-12	1.7	0	-2%	-11
O=C1CC(=O)Nc2cc(S(=O)(=O)Nc3ccc(F)cc3Cl)ccc2N1	0.0%&-0.1%	-44	-5	1.1	2	19%	0
Cc1ccn2c(=O)c(NC(=O)c3ccc(Br)o3)c(C)nc2c1	-1.4%	-3	-10	-3.1	-3	nt	7
Cc1ccc(SCc2cc(=O)[nH]c(Nc3nc(C)c4ccc(C)cc4n3)n2)cc1	4.0%	-4	-15	1.3	5	13%	7
CCOC(=O)C1(COCc2ccccc2)CCCCC1=O (stereo unspecified)	1.0%	nt	-10	-5.5	41	nt	0
O=C(N/N=C/c1cc2c(cc1[N+](=O)[O-])OCO2)c1ccc2c(c1)OCO2	1.0%	-13	-6	-1.6	-12	-9%	1
COc1ccccc1-c1sc2ccccc2c1-c1ccc(OCCN2CCOCC2)cc1	-0.9%	nt	nt	?	?	nt	-26
CCOc1ccc(S(=O)(=O)N2CCCCC2)cc1NC(=O)CN1C(=O)NC(C)(C2CC2)C1=O (stereo unspecified)	0.3%	?	-31	-5.7	1	nt	3
CC(C)CNC(=O)CCCc1c[nH]c2ccccc12	-1.6%	-16	-3	-3.2	13	-3%	0
COc1ccc(C(C)=O)cc1Cn1c(C)c(C(=O)NCc2ccc(C(F)(F)F)cc2)sc1=O	2.2%	nt	-7	5.0	-4	nt	0
CCCCNC(=S)Nc1ccc(SC(F)F)cc1	?	-8	4	-3.4	-16	-20%	27
COCCNC(=O)c1cn(C(C)c2ccccc2F)nn1 (stereo unspecified)	0.3%	1	-17	-5.5	4	23%	nt
COc1ccc(N(C(C)C(=O)Nc2cccnc2)S(C)(=O)=O)cc1 (stereo unspecified)	-1.7%	9	-7	1.1	7	17%	5
CCOC(=O)C1CCCN(C(=O)c2ccc3c(=O)n(Cc4ccccc4OC)c(=S)[nH]c3c2)C1 (stereo unspecified)	1.5%	16	-2	-1.5	-8	-6%	-5
c1ccc2[nH]c(NCCCN3CCOCC3)nc2c1	4.6%[38.3 µM]	14	5	0.1	5	7%	12
SMILES	PINK1 modulator	TRPV1 PAM	D2 PAM	D2 ag	Six1-Eya2 inh	Sfp inh	CtBP-E1A inh
CCc1ccc(CN(C)C(=O)C2CCC(=O)N(Cc3cccc(OC)c3)C2)nc1 (stereo unspecified)	1.8%	-1	-7	0.0	-4	15%	nt
COc1ccccc1OCc1ccc(C(=O)NCC2CCCO2)o1 (stereo unspecified)	-2.8%	5	-5	-0.7	2	3%	4
CCCCc1c(-c2ccccc2OC)ncn1Cc1ccc(Cl)cc1	29%	nt	nt	nt	-17	nt	-3
CCn1c2ccccc2c2cc(NC(=O)COc3ccc(OC)cc3)ccc21	1.6%	nt	-3	-2.6	-10	?	-3
FC(F)Oc1ccc(-n2cc(-c3ccc(Cl)cc3)[n+]3c2CCCCC3)cc1	0.9%	?	-25	0.1	-4	15%	3
CCCCN1CC[C@H]2C=CC[C@@H](C(=O)N3CCN(c4ccccc4)CC3)[C@H]2C1=O	-0.2%	nt	-3	1.2	9	nt	6
Cc1n[nH]c(=O)nc1N1CCN(c2ccccc2)CC1	-1.0%	3	-4	-2.4	13	-1%	-7
Cc1nc2c(Br)cc(Br)cc2cc1O	0.0%	4	-1	1.3	9	15%	-3
Cc1ccc(-c2[nH]ncc2/C=N/n2c(C)nc3ccccc3c2=O)cc1	-0.3%	0	7	12	0	-6%	-2
Oc1ccc2ccccc2c1C=Nc1cc(C(F)(F)F)ccc1N1CCCC1	5.9%	-2	55*	6.8	?	-9%	?
CCOc1ccc(NC(=O)c2ccc(NS(=O)(=O)c3cccs3)cc2)cc1	2.0%	10	0	-12	17	20%	-2
Cc1ccc(NC(=O)C(C)SCc2nc3sc(C)c(C)c3c(=O)[nH]2)nc1 (stereo unspecified)	-3.1%	-2	-21	-4.6	-3	nt	-4
N#Cc1ccc(NC(=O)Nc2ccc(Oc3ccc(NC(=O)Nc4ccc(C#N)cc4)cc3)cc2)cc1	45µM*	7	7	?	-4	23%	-4
Nn1c(C2COc3ccccc3O2)n[nH]c1=S (stereo unspecified)	0.7%	nt	-10	-2.8	1	7.1µM*	nt
CC(=O)N1c2ccc(S(=O)(=O)NCC3CCC(C(=O)NC4CCC(C)CC4)CC3)cc2CC1C (stereo unspecified)	0.8%	13	-7	-1.4	3	-3%	3
